# Mtb betalactam – beta-lactam sensitization of Mtb H37Rv; M. tuberculosis H37Rv growth with meropenem, percent inhibition; hits of this screen are not shown here; inhibition, % at 25 µM; actives 0.27% (n = 330,000);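 active = about 74% or more and at least 40 points above the plate without the antibiotic, then above 30% in a dose series; inconclusive = first-round hits that could not be retested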;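 also: growth measured after seven days incubation then overnight dye step; 0% = bacteria only wells and 100% = bacteria with antibiotic; twin plates without the antibiotic show which effects depend on it; some results filed as inactive read as strong as hits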
# RecA splice inh – blocks M. tuberculosis RecA intein splicing; inhibition, %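 (about 9 µM by stock and volumes)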; actives 0.75% (n = 290,000); cell-free RecA intein splicing, fluorescence; in the data active = inhibition above about 30%; inconclusive = no clear call, values can overlap the other calls;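 also: 0% = vehicle wells and 100% = reference inhibitor control wells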
# Target sequence (P9WHJ3 whole entry, looked up, canonical isoform): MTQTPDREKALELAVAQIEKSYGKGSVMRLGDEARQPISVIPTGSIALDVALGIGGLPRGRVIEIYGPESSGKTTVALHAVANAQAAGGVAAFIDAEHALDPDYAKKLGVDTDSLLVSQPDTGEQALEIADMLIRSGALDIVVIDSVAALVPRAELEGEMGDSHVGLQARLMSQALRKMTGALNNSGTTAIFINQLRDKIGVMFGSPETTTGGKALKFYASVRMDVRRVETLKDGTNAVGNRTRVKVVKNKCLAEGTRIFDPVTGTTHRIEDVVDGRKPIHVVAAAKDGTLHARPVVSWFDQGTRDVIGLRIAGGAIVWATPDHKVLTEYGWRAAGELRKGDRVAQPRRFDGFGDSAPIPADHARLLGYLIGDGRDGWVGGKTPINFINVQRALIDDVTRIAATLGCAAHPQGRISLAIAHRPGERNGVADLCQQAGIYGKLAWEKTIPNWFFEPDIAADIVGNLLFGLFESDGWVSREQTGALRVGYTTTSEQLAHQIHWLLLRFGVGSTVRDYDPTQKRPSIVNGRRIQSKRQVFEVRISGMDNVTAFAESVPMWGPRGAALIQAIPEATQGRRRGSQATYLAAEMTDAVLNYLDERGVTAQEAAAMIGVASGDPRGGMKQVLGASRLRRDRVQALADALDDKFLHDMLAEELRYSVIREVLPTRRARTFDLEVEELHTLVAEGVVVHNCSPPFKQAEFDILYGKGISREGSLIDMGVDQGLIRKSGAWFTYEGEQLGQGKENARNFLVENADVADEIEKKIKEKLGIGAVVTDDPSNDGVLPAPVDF
# Arbovirus inh – arbovirus infection inhibition. arbovirus infection cell-based antiviral screen. inhibition, % at 10 µM. actives 0.37% (n = 200,000);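 active = inhibition from about 30%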;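 also: bluetongue infection of BSR cells; cell survival read as ATP light after 72 h; 0% = infected wells without compound and 100% = uninfected wells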
# YopH PTP inh – blocks Yersinia enterocolitica YopH tyrosine phosphatase. fluorescence Ex485/Em525. inhibition, %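 (about 10 µM by stock and volumes)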. actives 0.16% (n = 140,000);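 active = inhibition of 50% or more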;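 also: controls were vehicle for no effect and minimum signal wells for full effect; inactives centre near -20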
# Mtb growth – M. tuberculosis H37Rv growth inhibitors, H37Rv strain (AID 1626) | M. tuberculosis H37Rv growth inhibition; higher % means a stronger effect | one-dose inhibition, % at 10 µM; IC50 in µM for titrated hits | actives 0.95% (n = 220,000);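 active = confirmed in a dose series; inconclusive = inhibition above 80% but not taken into the dose series; inactive = below 80% or under 30% at every dose of the series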;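 also: bacteria incubated seven days before Alamar blue readout; 0% = bacteria only wells and 100% = bacteria with antibiotic wells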
# Arbovirus inh repeat – second read-out of Arbovirus inh, no call of its own (marks repeat the call); inhibition, %; measured here: 10K subset replicate screen; many hits read low in the repeat;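 first of two repeat runs on a subset; 0% = infected and 100% = uninfected wells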
# The depositor's hits bear a star; ? = inconclusive; . = no result given. An excerpt (hit frequency here may not be typical).
SMILES,Mtb betalactam,RecA splice inh,Arbovirus inh,YopH PTP inh,Mtb growth,others
CC(C)NS(=O)(=O)c1ccc(OCC(=O)Nc2ccc(F)cc2F)cc1,0,-0.4,27,-11,5%,
COc1cccc(C(=O)NCCC2=CCCCC2)c1OC,5,2.6,-5,-24,-10%,
CCN(CC)C(=O)CC(c1cc(OC)c(OC)c(OC)c1)c1c(OC)cc(OC)c2ccc(=O)oc12 (centres undefined),0,-4.3,.,.,-10%,
Cn1c(=O)oc2cc(S(=O)(=O)Nc3ccccc3F)ccc21,-6,0.3,.,.,.,
NC(=S)N/N=C/c1ccc(-c2ccc(SC(F)F)cc2)o1,94,1.8,.,.,?,
O=C(c1ccc(S(=O)(=O)Nc2ccccc2)cc1)N1CCOCC1,-3,0.5,6,-42,3%,
Cc1cc(=O)[nH]c(SCC(=O)Nc2nc3ccccc3s2)n1,-14,-1.7,3,.,1%,
O=C1CSC(c2ccccn2)N1c1ccc(C(F)(F)F)cc1 (centres undefined),0,-2.3,.,.,4%,
Cc1cccc2cc(CN(CCCN(C)C)C(=S)NCCc3ccccc3)c(=O)[nH]c12,6,6.7,-30,.,-3%,
Cc1cccc(-n2nc3c(c2NC(=O)CCCl)CSC3)c1,8,0.6,.,.,.,
Cc1cc(NS(=O)(=O)c2ccc(NC(=O)CSc3nnc(-c4ccco4)n3N)cc2)nc(C)n1,-3,-1.3,6,-28,15%,
COC(=O)c1sc(NC(=O)c2cc(-c3ccccc3)nc3ccccc23)c(C#N)c1C,56,-0.1,13,12,4%,
COc1ccc(NC(=O)NNS(=O)(=O)c2ccc(OC)c(OC)c2)c(OC)c1,-3,0.1,.,.,.,
CCOC(=O)C1(Cc2cccc(Cl)c2)CCCN(C(=O)c2cc(C)n(C)n2)C1 (centres undefined),-9,-0.4,.,.,.,
O=C(COC(=O)c1ccc([N+](=O)[O-])o1)Nc1nc2ccccc2s1,68,-3.0,.,.,-6%,
Cc1cc(/C=N/NC(=O)C(=O)NCc2ccccn2)c(C)n1-c1ccccc1,1,-3.2,7,-11,3%,
Cc1c(C(c2ccc(N(C)C)cc2)c2c(C)n(C)n(-c3ccccc3)c2=O)c(=O)n(-c2ccccc2)n1C,1,-0.4,1,.,5%,
COc1ccc(CCN2Cc3c(N)cccc3C2=O)cc1OC,-2,-0.8,.,.,.,
O=C(Nc1ccc2c(c1)CCCN2C(=O)c1cccs1)c1cccc(F)c1,15,3.2,.,.,.,
CCCCN(C)Cc1c(O)ccc2c(=O)c(-c3ccccc3OC)coc12,-8,-1.6,.,.,.,
S=c1[nH]nc(-c2ccccn2)n1/N=C/c1cccs1,0,0.8,-8,-25,-1%,
Cc1ccc(CNC(=O)c2ccc(N3CCC4(CC3)CC(c3ccccc3)=NO4)c(N)c2)cc1,3,1.7,.,.,.,
CC(NC(=O)CSc1nc2ccccc2n1CCC#N)c1ccc(F)cc1 (centres undefined),-6,1.0,-4,1,-1%,
Cc1cc(-n2c(SCC(=O)Nc3ccc(Br)cc3)nc3n[nH]c(C)c3c2=N)ccc1Cl,11,-3.3,.,.,.,
CN1c2ccccc2C(=O)NC1c1ccc(Cl)cc1 (centres undefined),0,-8.7,3,.,-1%,
COc1ccc(S(=O)(=O)N2CCCc3ccccc32)cc1OC,0,-0.4,.,.,-5%,
Cc1ccc2nc(SCC(=O)Nc3ccc4c(c3)OCCO4)[nH]c2c1,58,2.6,4,-10,2%,
COc1cc(/C=N/NC(=O)CNC(=O)/C=C/c2ccco2)cc(OC)c1OC,3,2.0,.,.,.,
Cc1n[nH]c(=O)c2c(NC(=O)CSc3nn(-c4ccc(F)cc4)c(=S)s3)oc(C)c12,-3,5.6,.,.,.,
COc1ccccc1CCC(=O)Nc1nc2ccccc2[nH]1,96,2.0,-27,-35,?,
Cn1c(COc2ccccc2)nnc1SCCC(=O)Nc1ccccc1,-5,-0.5,-1,-16,0%,
Cc1ccc(NC(=S)Nn2cnnc2)c(C)c1,1,1.3,.,.,.,
Cc1ccc(NS(=O)(=O)c2ccc(/C=C/C(=O)O)cc2)cc1Cl,-6,1.4,13,.,5%,
O=C(Cn1nnc2c(sc3nc4c(c(-c5ccccc5)c32)CCC4)c1=O)c1ccccc1,-8,-0.3,-9,-7,10%,
CC1Cc2ccccc2N1C(=O)CSc1nnnn1Cc1ccccc1 (centres undefined),-4,7.1,-8,-32,1%,
CCOC(=O)C1CCN(Cc2c(C(=O)N3CCOCC3)nc3c(C)cccn23)CC1,9,0.2,.,.,.,
Cc1csc(NC(=O)CCc2nc3ccccc3s2)n1,-8,1.0,3,-15,-6%,
COc1ccc2oc(=N)c(C(=O)Nc3ccccc3)cc2c1,87,.,7,-64,3%,
COc1ccc(OC)c(N2C(=O)C(Cl)=C(N3CCCCC3)C2=O)c1,51,63*,5,-54,12%,
Cc1cnc(C(=O)N2CCCC(N3CCN(c4ccccc4C)CC3)C2)cn1 (centres undefined),-2,-0.1,.,.,.,
Cn1c(C(=O)N2CCCCCC2)cc2c(=O)n(C)c3ccccc3c21,2,0.3,1,-21,-8%,Arbovirus inh repeat=-3
O=C(O)/C=C/C(=O)Nc1ccc(OC(F)(F)F)cc1,-2,-0.5,.,.,-1%,
Oc1ccc(/C=N/Nc2nc(N3CCCCCC3)nc(N3CCCCCC3)n2)c(O)c1,80,-5.4,-35,.,?,
OC(COc1cccc2ccccc12)CN1CCN(c2cccc(Cl)c2)CC1 (centres undefined),3,8.9,.,.,.,
COc1cccc2cc(-c3nnc(SCC(=O)Nc4cc(C(F)(F)F)ccc4Cl)n3N)oc12,-3,-1.5,-20,-29,-12%,
CCc1cccc(C)c1NC(=O)Nc1c(Br)cnn1C,0,1.0,.,.,.,
CCOc1ccc(CCNC(=O)CS(=O)Cc2nc(-c3ccc(OC)c(OC)c3)oc2C)cc1OCC (centres undefined),0,0.4,.,.,.,
CC(/C=C1\SC(=S)N(NS(=O)(=O)c2ccc(C)cc2)C1=O)=C\c1ccccc1,-4,28,.,.,1%,
Cc1ccc(S(=O)(=O)N2CCN(C3CC(=O)N(Cc4ccccc4)C3=O)CC2)cc1C (centres undefined),-4,-0.8,5,-40,-7%,
CC(NS(=O)(=O)c1ccc(Br)cc1)C(N)=O (centres undefined),2,-0.1,-2,-21,-8%,
O=c1[nH]c(CSc2ncccn2)nc2c1cnn2-c1ccccc1,1,-2.5,6,3,8%,
COc1ccc(NC(=O)CN(C)C(=O)/C=C/c2cn(Cc3ccccc3)nc2-c2cccnc2)cc1,-14,1.2,.,.,.,
Cc1cc(C)nc(SCC(=O)Nc2nc(-c3ccccc3)c(-c3ccccc3)o2)n1,0,20,-4,-11,5%,
CC1CCN(C(=O)CN(c2ccccc2)S(=O)(=O)N(C)C)CC1,-7,-0.1,1,.,1%,
CC(=O)c1cccc(NC(=O)NCc2cccnc2)c1,-11,-2.5,6,9,-12%,
CCCC(=O)NCCc1ccc(F)cc1,-3,-0.5,6,-10,-1%,
CC(=O)c1cccc(CN2CCCC(C(=O)c3ccc4c(c3)OCO4)C2)c1 (centres undefined),-9,0.7,4,.,1%,
COC(=O)/C=C/C(=O)Nc1ccc(O)c(Cl)c1,-13,7.3,2,-26,-3%,
Cn1c(SC(C(=O)Nc2ccc(F)cc2)c2ccccc2)nc2ccccc21 (centres undefined),4,14,4,-14,-7%,
COc1ccc(C)cc1NC(=O)CCC(=O)Nc1nnc(C(F)(F)F)s1,-2,2.8,-2,-18,-3%,

# Next section:
SMILES,Mtb betalactam,RecA splice inh,Arbovirus inh,YopH PTP inh,Mtb growth,others
COc1ccc(NC(=O)Cn2c(=O)oc3cc(S(=O)(=O)N4CCCC4)ccc32)cc1,-3,-1.2,.,.,.,
CC(C)(C)OC(=O)NCCCC1=CC2=CC(=O)C(C)(OC(=O)c3ccc(Cl)nc3)C(=O)C2=CO1 (centres undefined),-9,-15,.,.,-8%,
CN(C)/C=C/C(=O)c1ccccc1OCc1cnc(Cl)s1,2,-4.9,8,.,9%,
CCc1ccccc1NC(=S)Nn1cnnc1,-1,-2.3,.,.,.,
CCCC1C2C(=O)N(c3ccc(OC)cc3)C(=O)C2ON1c1ccccc1 (centres undefined),-6,-1.3,-4,-6,-10%,
CCN1CCN(Cc2ccc(NC(=O)c3cc(NC(=O)c4cc(-c5ccc(OC)cc5)n[nH]4)cc(OC)c3)cc2C(F)(F)F)CC1,100,19,.,.,4.4µM*,
Cn1c(SCC(=O)N2CCCc3ccccc32)nc2cccnc21,-7,-1.2,-3,-1,4%,
CCN(CC)S(=O)(=O)c1ccc(N2CCOCC2)c(NC(=O)C2=COCCO2)c1,-1,-1.4,.,.,.,
Cc1ccc(NC(=O)Cn2c(=O)n(CCCC(=O)NCc3ccco3)c(=O)c3ccccc32)cc1,9,6.9,-10,-10,7%,
Nc1nc(SCc2cccc(Br)c2)n[nH]1,6,1.0,.,.,.,
CCCCNC(=O)c1ccc(Cn2c(=S)[nH]c3c([nH]c4ccc(OC)cc43)c2=O)cc1,6,-1.6,-18,-37,-1%,
O=C(O)c1ccc(CNCc2ccc(Cl)cc2Cl)cc1,-10,0.1,7,-27,-2%,
CCNc1nc(NC(C)C)nc(Oc2ccc(OCc3ccccc3)nn2)n1,-5,1.9,3,-4,-16%,
CCN(CC(=O)NCc1ccc(F)cc1)C(=O)/C=C/c1ccco1,7,0.9,-4,.,-5%,
COc1ccc(C(=O)CSc2nc(-c3ccccn3)nc(C)c2Cl)cc1,95,-0.5,.,.,6.1µM*,
O=C(CS(=O)(=O)Cc1ccccc1)Nc1ccccn1,0,1.4,-4,-9,-4%,
Cc1ccc(NS(=O)(=O)c2ccc(NC(=O)CN(c3cc([N+](=O)[O-])ccc3C)S(C)(=O)=O)cc2)c(C)c1,95,7.0,-23,-24,79%,
CCc1cccc2c(C(=S)N3CCOCC3)c[nH]c12,1,-0.2,2,.,-2%,
Cc1ccccc1N1C(=O)C(Oc2ccc(Cl)cc2)C1CNCC1CCCO1 (centres undefined),-2,-2.9,6,.,4%,
Cc1ccccc1OCC(=O)Nc1c2c(nn1C(C)(C)C)CS(=O)(=O)C2,14,0.9,.,.,.,

# Of the compounds above, 3 have a COOH group.
SMILES,Mtb betalactam,RecA splice inh,Arbovirus inh,YopH PTP inh,Mtb growth,others
Cc1ccc(NS(=O)(=O)c2ccc(/C=C/C(=O)O)cc2)cc1Cl,-6,1.4,13,.,5%,
O=C(O)/C=C/C(=O)Nc1ccc(OC(F)(F)F)cc1,-2,-0.5,.,.,-1%,
O=C(O)c1ccc(CNCc2ccc(Cl)cc2Cl)cc1,-10,0.1,7,-27,-2%,

# Back to the main list; the 4 compounds before the break are reprinted first.
SMILES,Mtb betalactam,RecA splice inh,Arbovirus inh,YopH PTP inh,Mtb growth,others
Cc1ccc(NS(=O)(=O)c2ccc(NC(=O)CN(c3cc([N+](=O)[O-])ccc3C)S(C)(=O)=O)cc2)c(C)c1,95,7.0,-23,-24,79%,
CCc1cccc2c(C(=S)N3CCOCC3)c[nH]c12,1,-0.2,2,.,-2%,
Cc1ccccc1N1C(=O)C(Oc2ccc(Cl)cc2)C1CNCC1CCCO1 (centres undefined),-2,-2.9,6,.,4%,
Cc1ccccc1OCC(=O)Nc1c2c(nn1C(C)(C)C)CS(=O)(=O)C2,14,0.9,.,.,.,
CCN(CC)S(=O)(=O)c1cc(C(=O)NCCN2CCOCC2)ccc1Cl,0,0.7,8,.,3%,
c1ccc(CCNc2nc(-c3ccncc3)cs2)cc1,60,-0.1,21,.,2%,
COc1cc(C=O)ccc1OS(=O)(=O)c1ccccc1[N+](=O)[O-],0,-3.6,20,-7,5%,
CCCCNC(=O)CN1C(=O)CN=C(c2ccccc2)c2ccccc21,1,-2.1,.,.,1%,
CC(C)(C)c1ccc(C(=O)NNc2cc(N3CCCCC3)nc(N3CCCCC3)n2)cc1,98,.,-26,-35,66%,
CC(C)Sc1cc(N2CCCC2)nc(-c2ccccc2)n1,56,-0.2,-1,-27,9%,
COc1ccc(CN2C(=O)C(CC(C)C)Nc3ncnc(N4CCN(c5ccccc5)CC4)c32)cc1 (centres undefined),0,12,.,.,.,
CCCCn1c(CCNC(=O)CCC)nc2ccccc21,1,-0.1,5,-41,-2%,Arbovirus inh repeat=2
O=C(/C=N/NC(=O)c1ccc(Cl)cc1Cl)c1ccccc1,0,-2.9,.,.,-2%,
O=C(/C=C/c1ccccc1Cl)N1CCOCC1,-5,-1.0,.,.,.,
c1csc(-c2ccn[nH]2)c1,3,3.9,.,.,-4%,
O=C(NCC(c1ccco1)N1CCc2ccccc2C1)c1ccccc1Br (centres undefined),5,1.9,.,.,.,
O=C(COc1ccccc1)Nc1ccc(OC(F)(F)C(F)F)c(NC(=O)COc2ccccc2)c1,-15,-0.7,2,-20,3%,

# High-throughput results: PubChem BioAssay, several laboratories
